# HNF4A DNA FP = change in binding of human HNF4 alpha to DNA. P41235. HNF4a-FITC DNA binding, fluorescence polarization, 1 h. activity change, % at 10 µM. 360,000 tested, 0.3% active. AID 1224865; in the data active = activity change above about 30%, passing the limit was not always enough;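 also: controls were the assay level and a saturating level of protein; the project sought stronger binding though the title names inhibitors; some compounds called inactive have numbers as strong as hits; positive values seem to mean higher polarization but the record does not say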
# E coli growth = blocks Escherichia coli growth | 330,000 tested, 0.21% active | OD600, 23 h; hits give low values | OD600 absorbance (no concentration beside the values);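 active = OD600 absorbance below the run mean of sample wells minus 3.6 SD, in any replicate, cut at about 0.56 in these data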;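 also: stock transfer was 300 nL into about 60 µL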
# LANA-H2A inh = blocks KSHV LANA binding to histone H2A/H2B | Q9QR71 | cell-free LANA-H2A/H2B peptide, fluorescence polarization | inhibition, % (test concentration not listed) | 320,000 tested, 0.6% active | AID 2629; in the data active = inhibition mostly above about 10%, no sharp cut-off; inactive = mostly below about 6.7%;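 also: stock transfer was 7.5 nL into about 10 µL; 0% = median of vehicle wells and 100% = median of positive control wells; one replicate is shown; the record names a cut of 25% in any replicate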
# A1 inh = inhibitors of the anti-apoptotic protein A1, read as caspase activation | caspase activation, % (no concentration beside the values) | MEF A1-2A-BIM cells, Caspase-Glo 3/7 luminescence, 3 h; percent of clofoctol response, vehicle zero | 330,000 tested, 0.066% active | AID 2462;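 active = over half of replicate activation scores above 10%, or exactly half above 10 with the replicate mean above 10; inconclusive = replicate mean below 10 yet half the replicates above 10; inactive = over half of replicates below 10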;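 also: wells of about 30 µL received 50 nL stock; many hits fall short of the cut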
# Vif TR-FRET = inhibitors of Vif binding to APOBEC3G peptide, primary screen, biochemical, TR-FRET, GST-Vif 1-94, biotin-A3G peptide, dose response retest (AID 1117319); TR-FRET GST-Vif / biotin-A3G peptide binding; higher % means a stronger effect; test concentration not given here; strong numbers were not always called active; inhibition, %; hits with a dose series show IC50 in µM; 260,000 tested, 0.57% active;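 active = above the screen mean plus three standard deviations and confirmed in dose response; inconclusive = results disagree or hit not tested in dose response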;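 also: Vif residues 1-94 fused to GST binding biotinylated APOBEC3G peptide 110-148; 0% = full assay without inhibitor and 100% = GST in place of GST-Vif; retest series ran down from 100 µM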
# UCH37 DUB inh = inhibitors of human deubiquitinating enzyme UCH37. AID 588478. Q9Y5K5. purified proteasome/UCH37, Ub-AMC cleavage fluorescence. 330,000 tested, 0.33% active. inhibition, % (no concentration beside the values);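 active = mean of two replicates above 20%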;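 also: 0% = compound-free wells with enzyme and 100% = wells lacking proteasome; stock transfer was 100 nL into about 20 µL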
# Target sequence (Q9Y5K5 whole entry, looked up): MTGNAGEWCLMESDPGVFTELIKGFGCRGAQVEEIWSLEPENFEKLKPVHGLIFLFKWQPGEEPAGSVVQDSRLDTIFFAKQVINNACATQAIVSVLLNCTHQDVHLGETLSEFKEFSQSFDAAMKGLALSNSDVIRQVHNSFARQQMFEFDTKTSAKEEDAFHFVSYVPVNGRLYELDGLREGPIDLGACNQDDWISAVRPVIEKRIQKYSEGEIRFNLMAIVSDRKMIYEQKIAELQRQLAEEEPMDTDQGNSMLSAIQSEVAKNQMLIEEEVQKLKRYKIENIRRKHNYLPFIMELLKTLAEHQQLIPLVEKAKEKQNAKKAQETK
#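 system = Proteasome-associated human UCH37 deubiquitinase | amount = 0.15 nM proteasome as dispensed | medium = pH 7.4 Tris-HCl (50 mM) with ovalbumin, ATP-MgCl2, DTT | incubation = 30 min preincubation with enzyme, 25 min cleavage at room temperature | detection = AMC fluorescence 355/460 nm | read-out basis = percent inhibition | controls = no-proteasome and no-compound wells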
# B2AR ag = human beta-2 adrenergic receptor agonism by FAP. P07550. Am2.2-beta2AR cells, FAP receptor internalization, flow cytometry; reference of the scale not given here. response, % (test concentration not listed). 340,000 tested, 0.43% active;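 active = response above a set limit, near 3 SD of response in nonfluorescent compounds, cut at about 42% in these data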;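 also: stock transfer was 100 nL into about 11 µL; a reference agonist was the positive control; negative values mostly stem from fluorescent compounds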
# Target sequence (P07550 whole entry, looked up): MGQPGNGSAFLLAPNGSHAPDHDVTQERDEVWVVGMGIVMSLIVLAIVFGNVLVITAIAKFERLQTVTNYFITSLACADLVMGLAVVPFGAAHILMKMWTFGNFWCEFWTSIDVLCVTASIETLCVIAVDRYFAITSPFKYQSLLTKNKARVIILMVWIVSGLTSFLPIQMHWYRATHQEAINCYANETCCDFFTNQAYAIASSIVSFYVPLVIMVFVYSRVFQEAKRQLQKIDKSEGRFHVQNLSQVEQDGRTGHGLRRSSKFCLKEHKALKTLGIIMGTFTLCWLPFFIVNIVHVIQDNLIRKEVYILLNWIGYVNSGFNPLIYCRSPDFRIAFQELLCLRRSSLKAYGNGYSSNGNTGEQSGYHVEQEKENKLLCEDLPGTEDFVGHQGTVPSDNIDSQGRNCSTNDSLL
# Numbers without * were called inactive; i = inactive; u = inconclusive; x = no result given.
SMILES,HNF4A DNA FP,E coli growth,LANA-H2A inh,A1 inh,Vif TR-FRET,UCH37 DUB inh,B2AR ag
COc1cc(N)c(Cl)cc1C(=O)OCC(=O)NC(=O)NCc1ccco1,1.5,0.646,-1.4,2.1,6.6%,1.0,-6.0
Cc1ccc(C(=O)CN2C(=O)NC3(CCCCC3C)C2=O)s1 (stereo unspecified),2.6,0.694,-2.4,-1.0,-1.3%,-0.3,0.7
COc1ccc2c(c1)SCCC2=O,2.2,0.699,1.3,0.4,1.1%,-4.2,4.1
COc1ccc(CNC(=O)c2cc(-c3ccco3)on2)cc1,-2.7,0.7,-0.7,-0.2,32.3%,-0.4,-0.7
COc1cccc(NS(=O)(=O)c2ccc3c(c2)NC(=O)C(C)C(=O)N3)c1 (stereo unspecified),0.6,0.764,-3.5,0.1,x,7.9,-1.6
COc1ccc(C(CNC(=O)COc2ccc(Br)cc2F)N2CCCC2)cc1 (stereo unspecified),3.2,0.72,3.8,0.9,2.1%,4.1,-1.2
Cc1ccc(NC(=O)C(C)OC(=O)CCC2CCCCC2)cc1 (stereo unspecified),-0.9,0.695,-2.3,2.6,-2.0%,5.7,-3.4
Nc1ccccc1SCC(=O)Nc1ccc2c(c1)OCO2,3.1,0.708,3.6,0.4,3.5%,1.4,-4.1
CC(C)(C)Oc1ncc(Br)c(OC(C)(C)C)n1,3.0,0.727,-4.6,-0.3,-3.6%,0.5,-2.5
CC1CN(Cc2c(O)ccc3c2oc(=O)c2ccccc23)CC(C)O1 (stereo unspecified),-8.2,0.689,-2.1,1.2,-24.8%,-12.3,11.0
CC1CCCN(C(=O)c2ccc3c(c2NCCO)C(=O)c2ccccc2C3=O)C1 (stereo unspecified),-1.7,0.725,-3.4,1.2,27.8%,4.3,-2.4
O=C1C=C(Nc2ccc(Cl)cc2)CC(c2ccc(Cl)cc2)C1 (stereo unspecified),1.0,0.699,-4.3,0.5,u,-1.9,5.1
CCN1C(=O)C(O)(C2COC(C)(C)CC2=O)c2ccccc21 (stereo unspecified),5.6,0.722,-1.4,0.3,-4.9%,4.8,0.8
C/C(=N\NC(=O)CSc1nnc(C)s1)c1ccc(Cl)cc1,-0.7,x,1.2,0.8,20.9%,x,-8.9
O=C(NC1CCCN(CCc2ccccc2)C1)c1c(F)cccc1F (stereo unspecified),2.1,0.655,-0.1,0.7,x,-0.9,1.8
CCOC(=O)c1c(C)nsc1NCc1ccccc1,0.6,0.646,2.8,0.9,x,5.7,-21.0
CCC(=O)c1ccc(SC(=O)N(C)C)cc1O,-3.2,0.634,1.4,-0.1,-6.5%,2.4,3.0
Clc1ccccc1Cn1nnc2c(NCC3CC3)ncnc21,3.0,0.671,3.6,-0.4,-0.1%,1.0,4.1
CCCCn1c(N)c(N(CCOC)C(=O)COc2c(C)cccc2C)c(=O)[nH]c1=O,0.7,0.668,-5.1,1.6,2.2%,2.6,3.0
Cc1ccc(C)c(C(C)NC(=O)C2C3CCC(O3)C2C(=O)O)c1 (stereo unspecified),x,x,0.2,-0.1,2.6%,x,x
COc1ccc(CN2CCNC(=O)C2CC(=O)NCc2cccc(C)n2)c(OC)c1 (stereo unspecified),-3.1,0.705,7.5,0.0,6.0%,-1.8,-6.5
Cc1cc(C)nc(CCNC(=O)C2CCC(=O)N(Cc3ccccc3F)C2)n1 (stereo unspecified),-4.1,0.671,10.0,-0.2,x,-2.9,-0.6
CCCCn1c(N)c(N(CC(C)C)C(=O)CC2OC(=O)c3ccccc32)c(=O)[nH]c1=O (stereo unspecified),-2.4,0.67,-3.1,0.1,4.2%,1.2,-3.2
O=C(CN1c2cccc3cccc(c23)S1(=O)=O)Nc1c(F)c(F)c(F)c(F)c1F,0.3,0.718,-3.1,-0.4,7.4%,0.6,4.2
O=C(N[C@@H](Cc1ccc(O)cc1)C(=O)O)c1ccc(C(F)(F)F)cc1,4.2,x,0.6,0.1,-6.5%,4.5,-3.8
CCCCSc1nnc(-c2ccccc2N)c(=O)[nH]1,1.9,0.681,0.5,-0.8,-3.4%,8.1,-6.3
CCOC(=O)c1cc(CC)sc1NC(=O)CC1SC(N)=NC1=O (stereo unspecified),2.8,0.686,-2.3,0.5,x,1.6,-5.7
COC(=O)CCC(=O)N1CCCC(CNS(=O)(=O)c2ccc(OC)cc2)C1 (stereo unspecified),1.8,0.704,-6.3,0.7,-2.2%,-1.1,7.5
O=C(NNC(=O)C1CC1)c1cc(Cl)nc2ccccc12,4.2,0.735,-0.6,-0.8,x,2.5,-2.7
O=C(CC1C(=O)NCCN1C(=O)c1ccc([N+](=O)[O-])cc1)Nc1cccc(Cl)c1 (stereo unspecified),3.1,0.689,-3.1,-0.8,x,6.3,-6.2
CCN(CC)CC(O)Cn1c(C)c(-c2ccccc2)c2cc([N+](=O)[O-])ccc21 (stereo unspecified),-1.5,0.69,-3.4,-1.1,-3.7%,11.1,32.2
O=C(COc1ncnc2ccccc12)Nc1cccc(S(=O)(=O)N2CCOCC2)c1,-0.9,0.636,-3.2,0.5,x,-1.8,-5.4
CCCCCC(=O)Nc1ccc(-c2cn3cccnc3n2)cc1,-2.3,0.672,-2.6,0.3,x,i,-12.8
CNC(=S)N1CCN(C(c2ccccc2)c2ccccc2)CC1,-3.6,0.669,-3.2,0.8,x,-0.1,2.1
O=C(c1c[nH]c2ccccc12)N1CCN(Cc2ccccc2)CC1,-4.5,x,3.2,-0.2,x,x,-9.0
Cc1ccc(NS(=O)(=O)c2ccc(CCC(=O)NCc3ccccn3)cc2)cc1,1.7,0.72,-11.4,1.3,2.4%,0.5,-0.9
CN(C(=O)/C=C/c1ccc([N+](=O)[O-])s1)c1ccccc1,2.1,0.633,5.1,0.1,x,5.1,7.8
O=Cc1cn(CC(=O)N2CCc3ccccc32)c2ccccc12,-0.4,0.678,-0.3,-0.6,-5.5%,1.6,-2.5
CCCc1nc(SCC(=O)c2ccccc2)c2c(=O)n(C)c(=O)n(C)c2n1,-0.4,0.781,1.9,-0.9,1.1%,1.4,-12.3
NS(=O)(=O)c1ccc(NC(=O)Cn2nc(C(=O)O)c3ccccc3c2=O)cc1,-4.6,0.716,-0.7,0.3,x,4.7,4.1
CC(C)(C)N1NC(=O)Nc2ccccc2C1=O,1.2,0.736,7.2,1.5,16.1%,-1.7,-0.3
CCOc1ccc(OCC)c(NC(=O)Nc2ccc3c(c2)N(C)C(=O)CS3)c1,8.0,0.742,0.4,0.2,27.9%,8.9,18.2
CC(C)(C)C1CCc2onc(C(=O)NC3CCCC3)c2C1 (stereo unspecified),0.8,0.69,6.1,-7.1,-1.7%,1.7,-16.8
O=C(Nc1ccccn1)Nc1cccs1,-1.3,0.664,0.2,-1.2,0.0%,-0.1,-7.9
O=C([C@@H]1Cc2ccccc2CN1)N1CCN(Cc2ccccc2)CC1,-1.8,0.641,-1.2,0.0,0.3%,-2.1,0.5
COc1ccccc1/C=C1\SC(=S)N(CC(=O)Nc2nnc(C)s2)C1=O,x,0.714,-1.6,0.6,x,2.1,x
CCOc1ccc(C(=O)NCc2ccc3c(c2)OCO3)cc1,-0.4,0.688,-0.8,2.6,x,3.7,14.7
CCOc1ccccc1NC(=O)COC(=O)CC(C)(C)CC1=NS(=O)(=O)c2ccccc2N1,-2.6,0.708,-0.3,0.0,x,4.0,-1.2
CC1(C)CC(=O)c2c(Cc3ccccc3)noc2C1,5.4,0.68,x,-0.3,2.8%,0.6,-3.2
FC(F)(F)c1ccc(/C=N/NC(=S)NC2CCCCC2)cc1,-0.2,x,-0.1,0.3,24.8%,x,0.4
Cc1ccc(-n2nc3c(Cl)nnc(C)c3c2C)cc1,-2.4,0.641,-1.9,0.2,x,1.6,1.8
CC(C)=NOc1nc(N(C)C)nc(N(C)C)n1,0.7,0.664,-1.9,-0.3,x,-1.3,7.9
c1ccc(-c2cc(N3CCCCCC3)n[nH]2)cc1,-3.5,0.701,1.2,0.6,3.2%,-2.6,-8.2
COCCNC(=S)N1CCN(S(=O)(=O)c2ccc(Cl)s2)CC1,-1.5,0.724,-1.9,0.4,2.0%,0.1,-4.3
Cc1ccc(-c2nc(S(=O)(=O)c3ccc(C)cc3)c(SCC(N)=O)o2)cc1,5.2,0.677,-2.7,0.6,x,1.1,-10.8
O=C(COc1ccccc1)N1CCN(C(=O)c2ccc([N+](=O)[O-])cc2)CC1,-0.1,0.699,6.8,-0.3,9.0%,0.3,-7.5
CC(c1ccc(F)cc1)n1c(-c2ccc3ccccc3n2)n[nH]c1=S (stereo unspecified),-2.4,0.621,-2.8,1.3,-4.7%,-0.7,22.0
COc1ccccc1Cc1noc(C(C)(C)NC(=O)c2ccccc2)n1,-0.5,0.665,1.1,-1.6,8.5%,4.9,4.2
Clc1ccc(OCCCCN2CCc3ccccc3C2)cc1,1.9,0.614,4.5,-0.1,11.9%,1.1,-1.2
Cc1ccc(C)c(NC(=O)C2CCCN2C(=O)OC(C)(C)C)c1 (stereo unspecified),-2.3,0.79,1.6,-2.4,-6.3%,-1.3,-10.4
# Next structures
SMILES,HNF4A DNA FP,E coli growth,LANA-H2A inh,A1 inh,Vif TR-FRET,UCH37 DUB inh,B2AR ag
COc1cccc(C(=O)NNC(=O)c2ccc3ccccc3c2O)c1,4.2,0.604,-4.5,-0.9,x,-4.1,-2.2
O=C(CNc1ccccc1F)Nc1cc(S(=O)(=O)N2CCCCC2)ccc1Cl,2.2,0.702,1.6,0.2,x,2.3,-7.7
COc1ccccc1NC(=O)COC(=O)c1ccc2c(c1)OCCO2,3.7,0.729,-0.9,-4.7,x,1.9,4.2
CC(C)c1nc2sc3c(c2c(=O)n1N)CC(C)(C)OC3,0.5,0.677,-3.3,0.1,-0.7%,-0.4,-5.1
O=[N+]([O-])c1c(C(Cl)Cl)nn(-c2ccc(Cl)cc2)c1N1CCCCC1,-0.5,0.658,-1.3,0.4,17.7%,0.3,35.3
c1cc(-c2nnc3n2CCC3)[nH]n1,-0.8,0.639,-7.5,0.6,19.8%,0.2,-1.9
CCC/C(=N\NC(=O)c1ccc(OC)c(OC)c1)c1ccccc1,-0.7,x,1.4,0.5,-6.2%,x,-19.3
COCC(=O)NCCc1nc2ccccc2[nH]1,-2.6,0.729,9.0,-0.7,77.6%,-0.4,7.0
CC(C)c1ccccc1NC(=O)COC(=O)C1(C)CC1(Cl)Cl (stereo unspecified),-0.4,0.68,-1.9,0.0,-5.0%,-1.8,4.1
CSc1ccccc1C(=O)C1CCCN(S(=O)(=O)N(C)C)C1 (stereo unspecified),0.9,0.622,-4.5,0.1,x,1.4,5.1
CCn1cc(C(=O)N2CCCC2)c(=O)c2cc(S(=O)(=O)N3CC(C)CC(C)C3)ccc21 (stereo unspecified),-4.0,0.632,7.5,-0.1,x,4.2,-0.9
N/C(=N\OC(=O)Cc1cccs1)c1ccccc1,4.6,0.678,-0.6,-0.3,9.6%,3.9,10.8
O=C(c1ccc(Cl)cc1)c1c[nH]c(C(=O)NNc2ccccc2)c1,-3.0,0.712,3.2,0.6,x,2.0,-3.4
NC(=S)NNC(=S)Nc1ccccc1,1.3,0.725,-6.0,0.0,x,2.1,-5.6
NC(=O)c1ccc(Cl)c2ccccc12,0.0,x,5.5,0.2,15.7%,x,-44.4

# Screens (PubChem)
